Screening results as filed in PubChem.
VDR inhibitor: inhibitors of human vitamin D receptor | VDR-SRC2-3 peptide fluorescence polarization, 2 h | hit rate 0.93% among 400,000 | Potency, µM, for inactives: max response, negative = inhibition, usual class: inhibitors | AID 504847; active = well fitted inhibition curve with a large enough effect; inconclusive = small, poorly fitted or top-dose-only effect, or another doubt; inactive = no such curve, though single readings can be large or run the other way; note: series mostly up to about 120 µM
Target sequence (P11473 whole entry, looked up): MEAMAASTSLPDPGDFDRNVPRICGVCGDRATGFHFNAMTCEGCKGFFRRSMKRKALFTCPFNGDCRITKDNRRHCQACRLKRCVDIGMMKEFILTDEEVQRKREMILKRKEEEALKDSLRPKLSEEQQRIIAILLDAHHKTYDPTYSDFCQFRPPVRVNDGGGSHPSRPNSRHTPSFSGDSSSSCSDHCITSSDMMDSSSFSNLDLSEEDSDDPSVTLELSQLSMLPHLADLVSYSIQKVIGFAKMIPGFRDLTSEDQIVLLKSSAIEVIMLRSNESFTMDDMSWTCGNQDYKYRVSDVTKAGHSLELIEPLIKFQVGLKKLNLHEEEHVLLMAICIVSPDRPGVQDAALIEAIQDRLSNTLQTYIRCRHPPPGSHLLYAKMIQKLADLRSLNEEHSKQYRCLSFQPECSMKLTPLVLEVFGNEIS
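VDR–SRC2-3 interaction, FP format. Cmpds 23 nl via pintool, brief spin, 2 h ambient incubation.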
An asterisk follows results filed as active; ? = inconclusive; & = joins results of further samples; [ ] = another dose, or the depositor's remark. % is set by controls: 0 for no effect and ±100 for the full control effect; potency is the fitted concentration of half-maximal effect. These rows are one share of the data (hit frequency here may not be typical).

SMILES	VDR inhibitor
COc1cccc(CNC(=O)CCC2CCCN(C(=O)c3ccoc3C)C2)c1 (stereo not given)	-3%
CCN(Cc1cc(OC)c(OC)c(OC)c1)C(=S)Nc1cccc(SC)c1	9%
CCC(=O)c1ccccc1OCCN1CCN(CC)CC1	7%
COc1cccc(CNC(=O)COC(=O)C2CCN(c3ccc(C(F)(F)F)cn3)CC2)c1	1%
CC(=O)NC(=S)Nc1ccc(NC(=O)c2cccnc2Cl)cc1	-24%
COc1cc(OC)cc(C(=O)N[C@H](C(=O)OCc2cc(=O)oc3cc(C)ccc23)C(C)C)c1	-9%
Clc1ccc(-c2noc3ncnc(N4CCCCC4)c23)cc1	-6%
Cn1c(=O)c2c(ncn2Cc2nnc(N)s2)n(C)c1=O	8%
CC(C)CCn1c(O)c(N=NC(=O)c2ccco2)c2ccccc21	13%
O=C(O)c1ccc(S(=O)(=O)NC2CCCCC2)cc1	14%
CC(C)c1csc(CN2CCC(CCC(=O)NCC3CCCO3)CC2)n1 (stereo not given)	3%
Cc1onc(-c2ccccc2)c1C(=O)N1CCN(S(=O)(=O)c2ccccc2Br)CC1	13%
CCOC(=O)/C=C/C(=O)OCC(=O)Nc1ccc(Cl)cc1Cl	?
COc1cc(-c2nnc3sc(C4CCCCC4)nn23)cc(OC)c1OC	5%
O=C(NCCCN1CCCC1=O)c1sc2ccccc2c1Cl	2%
Cc1nc(S/C(=C/c2ccc(-c3cccc(Cl)c3)o2)C(=O)O)n[nH]1	-4%
COc1ccc(S(=O)(=O)NCc2cccnc2)cc1C	6%
CNCc1cc2ccc(C)cc2[nH]c1=O	2%
Cc1csc(=O)n1CC(=O)Nc1ccc(S(C)(=O)=O)cc1	8%
CCOc1ccc(CCNC(=O)COC(=O)c2ccc3c(c2)OCCO3)cc1OCC	-6%
c1cc(C(c2nnnn2C2CCCCC2)N2CCN3CCCC3C2)ccn1 (stereo not given)	0%
COc1ccccc1CN1CCNC(=O)C1=O	16%
COc1cccc2cc(C(C)=O)oc12	-14%
COc1cccc(C=NCCCN=Cc2cccc(OC)c2O)c1O	136%[activator]
COc1ccc(C(=O)C2CCCN(C(=O)c3n[nH]c4c3CCCC4)C2)cc1OC (stereo not given)	-10%
COc1ccc(NC(=O)c2ccc3c(c2)C(=O)N(Cc2cccnc2)C3=O)c(OC)c1	7%
CC(C)(C)N(Cc1ccccc1)C(=O)c1ccncc1	6%
CC1CCCCC12NC(=O)N(CC(=O)Nc1ccc(S(=O)(=O)N3CCOCC3)cc1)C2=O (stereo not given)	2%
CCCCn1c(SCC(=O)c2cc(OC)ccc2OC)nc2cc(S(N)(=O)=O)ccc21	-5%
CCc1ccccc1-n1nnc(-c2nc(-c3ccccc3F)no2)c1C	15%
Cc1ccc(-c2nc(NCc3ccco3)n(S(C)(=O)=O)n2)cc1	11%
COc1ccc(Cl)cc1C(=O)CSc1nnnn1C1CCCCC1	-11%
CN(CC(=O)Nc1cccc(F)c1)C(=O)CSc1ccc(Br)cc1	5%
C[C@@H](NC(=O)OC(C)(C)C)C(=O)NCC1CCC(C(=O)N[C@@H](Cc2ccccc2)C(=O)O)CC1 (stereo not given in full)	-10%
COc1cc(=O)n(C)c2c(O)cccc12	-10%
CC1(C)Cc2cccc(OCC(=O)NCCc3ccc(S(N)(=O)=O)cc3)c2O1	-15%
N#CC12CCCCC1CC1CCCCC1(C#N)N2Cc1cccnc1 (stereo not given)	-15%
c1ccc(-c2ccn3nnnc3n2)cc1	6%
c1ccc(-c2cn3c4c(sc3n2)CCCC4)cc1	19%&-13%
CCC1CCCCN1CC(=O)Nc1cc(OC)c(OC)cc1C#N (stereo not given)	-4%
CCc1ccc2c(CN3CCc4ccccc43)cc(=O)oc2c1	9%
CCN(CC)CCCNC(=O)c1c(O)c2c([nH]c1=O)CCCC2	5%
COc1ccc(/C=C(\NC(=O)c2ccc(Cl)cc2)C(=O)NCCCN2CCOCC2)cc1OC	22%
CC(C)(O)P(=O)(O)CCc1ccccc1	-4%
CNc1c(NS(=O)(=O)c2ccc(Br)cc2)c(=O)oc2ccccc12	-1%
Cc1ccc(-c2[nH]ncc2CNCc2ccccc2)cc1	-29%
CCCOc1ccc(NC(=O)CC2C(=O)N(c3ccc(C)cc3)C(=O)N2C2CCCC2)cc1 (stereo not given)	2%
Cc1nnc(Nc2ccc3c(c2)OCO3)c2ccccc12	13%
O=C(NCc1ccccc1F)c1cccc(S(=O)(=O)N2CCCCC2)c1	-13%
O=C(NNC(=O)C1CCCN(S(=O)(=O)c2cccc(F)c2)C1)C1CC1 (stereo not given)	-28%
COc1cccc(C(=O)N/N=c2\sc3ccccc3n2C)c1	-8%
COc1ccc(C(=O)CN2Cc3ccccc3C2=N)cc1	2%
COc1ccc(N(C)S(=O)(=O)c2cccc(C(=O)N3CCN(c4ccccc4)CC3)c2)cc1	10%
COC(=O)c1ccccc1NC(=O)CN1C(=O)CSC1=O	12%
CCOC(=O)CNc1nc(Cl)nc(Nc2ccc(Cl)cc2)n1	-4%
CC(C)n1cc(C(=O)N2CCCC(N3CCN(c4cccc(Cl)c4)CC3)C2)cn1 (stereo not given)	-13%
CC(C)CC(=O)N1CCN(C(=O)c2ccc(F)cc2)CC1	6%
Cc1cc2oc(=O)cc(CN3CCCCC3)c2cc1C	7%
COCCNC(=O)C(c1ccc(C)o1)N(Cc1ccccc1)C(=O)Cn1nnc2ccccc21 (stereo not given)	18%
Cc1ccc(C(=O)Nc2ccccc2C(=O)O)cc1S(=O)(=O)NC1CCCCC1	-21%

Further records follow:
SMILES	VDR inhibitor
O=C(c1cccs1)N(CCN1CCCCC1)CC1CCCN(C2CCCC2)C1 (stereo not given)	-3%
COCc1cc(=O)n2[nH]c(SCc3ccccc3)nc2n1	-10%
Cc1ccc(SCCC(=O)OCC(=O)Nc2ccc(C(N)=O)cc2)cc1	-4%
CCCC(=O)OCC(=O)Nc1ccccc1C#N	-21%
COc1ccccc1N1CCN(C(=O)[C@H](C)NS(=O)(=O)c2ccc3c(c2)OCCCO3)CC1	-7%
Cc1cc(C(=O)OCC(=O)Nc2sc3c(c2C#N)CCC(C)C3)c2ccccc2n1 (stereo not given)	0%
COc1cccc(N2CCN(S(=O)(=O)c3ccc(-n4cnnn4)cc3)CC2)c1	-12%&2%
CCOc1cc(-c2nc3c(c(CC)nn3-c3ccccc3)c3cc(OC)c(OC)cc23)ccc1O	9%
COc1ccc(C)c2sc(N(CCCN(C)C)C(=O)c3ccc(S(=O)(=O)N4CCc5ccccc5C4)cc3)nc12	20%
Cc1cc(C)n(Cc2ccc(Cl)cc2Cl)c(=O)c1S(=O)(=O)c1ccccc1	1%
Cc1cccc(COc2ncnc3nc[nH]c23)c1	11%
CCN(CC)c1ccc(SS(=O)(=O)O)cc1	79µM*
Cc1cc(=O)cc(C)n1-c1ccc(F)cc1F	0%
COc1cc(/C=C2\CC/C(=C\c3cc(OC)c(OC)c(OC)c3)C2=O)cc(OC)c1OC	-2%
Cc1ccc(/C=N/n2c(-c3ccco3)n[nH]c2=S)s1	-4%
Cc1ccc(CSCC2Nc3ccc(C(=O)N4CCN(c5ccc(F)cc5)CC4)cc3NC2=O)cc1 (stereo not given)	79µM*
Cc1ccc(NC(=O)c2cc(Cl)nc3ccccc23)cc1	7%
COc1ccc(Br)cc1S(=O)(=O)N(CC(=O)N1CCN(C)CC1)c1ccccc1	1%
COc1ccc(N2CCN(C3CCCN(S(=O)(=O)c4ccc(C)cc4C)C3)CC2)cc1 (stereo not given)	1%
O=C(CSCc1cnn(-c2ccccc2)c1-n1cccc1)NCCN1CCOCC1	9%
Cc1cc(OCC(=O)O/N=C(\N)c2ccccc2)cc(C)c1Cl	-4%
O=C(NC(=S)Nc1ccc(N2CCOCC2)c(Cl)c1)c1cncc(Br)c1	-8%
N#Cc1cn(CCOc2ccccc2F)c2ccccc12	3%
CC(C)C(=O)Nc1ccc2c(c1)nc(CCN1CCCCC1)n2C	11%
COc1cc(C)nc(N(Cc2ccccc2)S(=O)(=O)c2ccc(C)cc2)n1	-8%
c1ccc(Cn2nnc3c(N4CCc5ccccc54)ncnc32)cc1	1%
CCOC(=O)N1CCN(CC(=O)Nc2sc(CC)cc2C(=O)c2ccc(OC)cc2)CC1	-3%
O=C(Nc1ccccc1)N1CC[C@@]2(CCCN(C(=O)c3ccncc3)C2)C1	5%
Cc1ccc(N2CC(NC(=O)Cc3ccc(F)cc3)CC2=O)cc1 (stereo not given)	11%
COc1ccc(S(=O)(=O)NNC(=O)C2COc3ccccc3O2)cc1[N+](=O)[O-] (stereo not given)	-19%
Cc1nnc(SC/C=C/c2ccccc2)n(N)c1=O	-25%
CSCCC(NS(=O)(=O)c1ccccc1F)C(=O)N1CCCCCCC1 (stereo not given)	10%
CC(C)(O)C#Cc1ccc(C(=O)NC2CCCCC2)s1	0%
CC1(C)O[C@@H]2C[C@H]3[C@@H]4CCC5=CC(=O)C=C[C@]5(C)[C@@]4(F)[C@@H](O)C[C@]3(C)[C@]2(C(=O)CO)O1	2%
COCCNCCOCCOc1cccc(OC)c1	7%
O=C(CCNS(=O)(=O)c1cccs1)Nc1ccccc1F	7%
Cc1ccc(-n2nc3c(=O)n(CCCC(=O)N4CCCCC4)nc(C)c3c2C)cc1	5%
Cn1cnnc1SCC(=O)NC1CCCCC1	-12%
CCN(C(=O)Cn1cnc2c(nc3n2CCCCC3)c1=O)c1cccc(Cl)c1	16%
O=C(c1ccco1)N1CCN(S(=O)(=O)c2ccc(Br)s2)CC1	-19%
CCCCN(CCCC)c1cc(C)nc(-c2ccccc2O)n1	-3%
CN1CCc2[nH]c3ccc(Cl)cc3c2C1	3%
COc1ccccc1N1CCN(S(=O)(=O)c2ccc3c(c2)n(C)c(=O)n3C)CC1	6%
CCOC(=O)c1c(C)c(C(=O)NCc2ccccn2)c(C)n1C	-21%
CCOC(=O)C(NC(=O)CC)(Nc1sc(C)c(CC)c1C#N)C(F)(F)F (stereo not given)	3%
CC(C)(C)OC(=O)N[C@@H](C(=O)OC(C)(C)C)c1ccc2c(c1)OCO2	6%
CCc1ccccc1NC(=O)C(=O)NCC(c1cccnc1)N1CCc2ccccc21 (stereo not given)	-5%
Cc1ccc(C(C)C)c(OCC(=O)NN=C2CCCC(=O)C2)c1	-8%

Reformatted in CSV form: part of the list above
SMILES,VDR inhibitor
O=C(Nc1ccccc1)N1CC[C@@]2(CCCN(C(=O)c3ccncc3)C2)C1,5%
Cc1ccc(N2CC(NC(=O)Cc3ccc(F)cc3)CC2=O)cc1 (stereo not given),11%
COc1ccc(S(=O)(=O)NNC(=O)C2COc3ccccc3O2)cc1[N+](=O)[O-] (stereo not given),-19%
Cc1nnc(SC/C=C/c2ccccc2)n(N)c1=O,-25%
CSCCC(NS(=O)(=O)c1ccccc1F)C(=O)N1CCCCCCC1 (stereo not given),10%
CC(C)(O)C#Cc1ccc(C(=O)NC2CCCCC2)s1,0%
CC1(C)O[C@@H]2C[C@H]3[C@@H]4CCC5=CC(=O)C=C[C@]5(C)[C@@]4(F)[C@@H](O)C[C@]3(C)[C@]2(C(=O)CO)O1,2%
COCCNCCOCCOc1cccc(OC)c1,7%
O=C(CCNS(=O)(=O)c1cccs1)Nc1ccccc1F,7%
Cc1ccc(-n2nc3c(=O)n(CCCC(=O)N4CCCCC4)nc(C)c3c2C)cc1,5%
Cn1cnnc1SCC(=O)NC1CCCCC1,-12%
CCN(C(=O)Cn1cnc2c(nc3n2CCCCC3)c1=O)c1cccc(Cl)c1,16%
O=C(c1ccco1)N1CCN(S(=O)(=O)c2ccc(Br)s2)CC1,-19%
CCCCN(CCCC)c1cc(C)nc(-c2ccccc2O)n1,-3%
CN1CCc2[nH]c3ccc(Cl)cc3c2C1,3%
COc1ccccc1N1CCN(S(=O)(=O)c2ccc3c(c2)n(C)c(=O)n3C)CC1,6%
CCOC(=O)c1c(C)c(C(=O)NCc2ccccn2)c(C)n1C,-21%
CCOC(=O)C(NC(=O)CC)(Nc1sc(C)c(CC)c1C#N)C(F)(F)F (stereo not given),3%

New compounds follow
SMILES	VDR inhibitor
Cc1ccc(CNC(=O)C2CCCN(S(=O)(=O)c3cccnc3)C2)cc1 (stereo not given)	7%
CC(Sc1ccc(S(=O)(=O)N2CCCCCC2)cn1)C(N)=O (stereo not given)	8%
O=C(Nc1ccc(F)cc1)[C@H](CSCc1ccccc1)N1Cc2ccccc2C1=O	-7%
Cc1ccc(Nc2ccc3cc(S(=O)(=O)N4CCCCC4)ccc3n2)cc1F	21%
COCCNC(=O)C1CCC(CNS(=O)(=O)c2ccc(F)cc2)CC1 (stereo not given)	-3%
Cc1ccc(C(c2sc3nc(C)nn3c2O)N2CCN(c3ccc(F)cc3)CC2)cc1 (stereo not given)	-15%
CNc1ccc([N+](=O)[O-])cc1C(=O)O	1%
O=c1[nH]c2ccc(S(=O)(=O)N3CCN(c4ccc(F)cc4)CC3)cc2o1	-12%
COc1ccc([C@H]2CC(=O)C=C(c3ccccc3C(F)(F)F)C2)cc1	-28%
Cn1ncc(Br)c1C(=O)Nc1ccc(F)cc1F	-3%
CCOC(=O)c1ccc(NC(=O)CCc2nc(-c3ccccc3)no2)cc1	4%
O=C(O)C1Cc2ccccc2CN1C(=O)c1ccccc1 (stereo not given)	6%
CCCC(C)NC(=O)c1nc(-c2ccccc2)n(-c2ccccc2)n1 (stereo not given)	-9%
O=C(CN1CCN(S(=O)(=O)c2ccccc2[N+](=O)[O-])CC1)Nc1ccc(N2CCOCC2)cc1	0%
O=C(c1cc(COc2ccc(-n3cncn3)cc2)on1)N1CCCC1	0%
NC(=O)Cn1cc(/C=N\NS(=O)(=O)c2cccc([N+](=O)[O-])c2)c2ccccc21	-6%
Cn1nnnc1SCC(=O)Nc1cccc([N+](=O)[O-])c1	-4%
CC(=O)OC(/C(O)=C(\C#N)c1nc2ccccc2[nH]1)c1ccccc1 (stereo not given)	1%
CCCCn1nnnc1SCC(=O)Nc1ccc(C)cc1	-2%
COc1ccc(/C=N/NC(=O)C(C)N(c2ccc(OC)cc2)S(C)(=O)=O)cc1 (stereo not given)	-8%
CC(=O)c1ccc(NC(=O)CSC(C)C)cc1	-10%
Nc1c(C(=O)c2ccccc2)oc2ccc(Br)cc12	6%
